From PubChem BioAssay
AF4-AF9 inh – inhibitors of human MLL-AF4/AF9 interaction. AlphaScreen, biotin-AF4 peptide binding to FLAG-AF9. inhibition, % at 10 µM. 0.47% of 350,000 active;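 active = every replicate reaching a set inhibition limit, whatever the replicate mean, cut at about 25% in these data; inconclusive = mean inhibition reaches that limit but some replicates miss it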;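 also: 0% = plate neutral control median and 100% = total signal loss; the record names both 10 and 1 µM as test concentration; the first replicate is given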
Bfl-1 A1 inh – inhibitors of the anti-apoptotic protein A1, read as caspase activation. MEF A1-2A-BIM cells, Caspase-Glo 3/7 luminescence, 3 h; percent of clofoctol response, vehicle zero. caspase activation, % (no concentration beside the values). 0.066% of 330,000 active;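 active = over half of replicate activation scores above 10%, or exactly half above 10 with the replicate mean above 10; inconclusive = replicate mean below 10 yet half the replicates above 10; inactive = over half of replicates below 10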;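 also: wells of about 30 µL received 50 nL stock; many hits fall short of the cut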
Vif A3G – HIV-1 Vif–A3G interaction blockers – biochemical, TR-FRET, GST-Vif 1-94, biotin-A3G peptide, dose response retest, primary screen (AID 1117319). TR-FRET GST-Vif / biotin-A3G peptide binding; higher % means a stronger effect; test concentration not given here; strong numbers were not always called active. inhibition, %, or IC50 in µM where a hit was titrated. 0.57% of 260,000 active;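 active = above the screen mean plus three standard deviations and confirmed in dose response; inconclusive = results disagree or hit not tested in dose response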;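 also: Vif residues 1-94 fused to GST binding biotinylated APOBEC3G peptide 110-148; 0% = full assay without inhibitor and 100% = GST in place of GST-Vif; retest series ran down from 100 µM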
Calb FLC – C. albicans growth modulation with fluconazole. C. albicans CaCi-2 (fluconazole-resistant clinical isolate) + fluconazole, Alamar Blue growth, 48 h. growth inhibition, % (concentration not given with the values). 0.57% of 300,000 active;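 active = most replicates above 75%; inconclusive = exactly half above 75%; inactive = most below 75%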;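 also: all wells also contain fluconazole at 8 µg/ml as a sub-toxic cotreatment; 0% = median of DMSO wells and 100% = median of geldanamycin control wells; wells of about 8 µL received 7.5 nL stock; the first replicate is given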
LANA-H2A inh – blocks KSHV LANA binding to histone H2A/H2B; cell-free LANA-H2A/H2B peptide, fluorescence polarization; inhibition, % (no concentration beside the values); 0.6% of 320,000 active; in the data active = inhibition mostly above about 10%, no sharp cut-off; inactive = mostly below about 6.7%;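 also: stock transfer was 7.5 nL into about 10 µL; 0% = median of vehicle wells and 100% = median of positive control wells; one replicate is shown; the record names a cut of 25% in any replicate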
Target sequence (Q9QR71 whole entry, looked up): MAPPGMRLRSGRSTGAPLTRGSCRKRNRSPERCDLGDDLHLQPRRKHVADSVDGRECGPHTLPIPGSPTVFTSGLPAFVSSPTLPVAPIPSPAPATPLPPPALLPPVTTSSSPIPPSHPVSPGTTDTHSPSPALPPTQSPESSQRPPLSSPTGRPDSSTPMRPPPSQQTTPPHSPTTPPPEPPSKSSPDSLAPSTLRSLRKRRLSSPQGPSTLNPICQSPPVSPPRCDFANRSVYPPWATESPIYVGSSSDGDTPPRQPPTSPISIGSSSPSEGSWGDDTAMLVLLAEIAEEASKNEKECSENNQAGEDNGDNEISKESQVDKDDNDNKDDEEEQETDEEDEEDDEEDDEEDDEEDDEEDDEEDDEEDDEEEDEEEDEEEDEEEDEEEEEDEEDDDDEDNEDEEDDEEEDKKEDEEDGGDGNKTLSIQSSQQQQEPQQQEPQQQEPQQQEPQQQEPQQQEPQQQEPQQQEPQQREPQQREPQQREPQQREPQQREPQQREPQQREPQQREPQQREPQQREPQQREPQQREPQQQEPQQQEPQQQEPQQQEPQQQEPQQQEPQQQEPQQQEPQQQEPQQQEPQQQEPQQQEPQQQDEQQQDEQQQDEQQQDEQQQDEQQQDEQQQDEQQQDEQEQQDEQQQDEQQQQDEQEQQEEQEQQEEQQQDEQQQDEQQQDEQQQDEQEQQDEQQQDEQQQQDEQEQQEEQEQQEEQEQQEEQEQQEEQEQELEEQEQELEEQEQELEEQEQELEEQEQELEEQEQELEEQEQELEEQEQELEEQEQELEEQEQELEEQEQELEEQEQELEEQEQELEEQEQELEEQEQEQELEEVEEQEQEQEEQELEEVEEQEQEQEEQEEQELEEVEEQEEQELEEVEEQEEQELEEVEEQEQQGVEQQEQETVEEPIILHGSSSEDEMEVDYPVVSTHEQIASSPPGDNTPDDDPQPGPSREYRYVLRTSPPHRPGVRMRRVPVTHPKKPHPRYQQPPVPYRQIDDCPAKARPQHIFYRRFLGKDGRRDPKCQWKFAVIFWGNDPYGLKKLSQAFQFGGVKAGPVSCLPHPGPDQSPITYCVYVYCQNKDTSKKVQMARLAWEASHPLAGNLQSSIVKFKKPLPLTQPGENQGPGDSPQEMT
Beta apoptosis – blocks beta cell apoptosis; INS-1E cytokine-induced death, ATP luminescence, 48 h; percent of positive-control rescue, neutral wells zero; protection from apoptosis, % (concentration not given with the values); 0.8% of 300,000 active; AID 435005;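 active = all replicates at 75% or more, or half of them and the mean; inconclusive = half reach 75% but not the mean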;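 also: 0% = cytokine-treated negative control wells and 100% = positive control rescue; higher means more ATP so stronger rescue from cytokine killing; wells of about 40 µL received 100 nL stock; the first replicate is given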
RanGTP-Imp inh – inhibitors of RanGTP-importin-beta interaction, primary screen, biochemical, FRET, CFP-Ran, YFP-importin-beta, homogeneous; cell-free CFP-Ran/YFP-importin-beta FRET ratio; AID 2216; 1.1% of 300,000 active; inhibition, % (concentration not given with the values);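 active = most replicates above 15%; inconclusive = exactly half above 15%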;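 also: 0% = DMSO wells and 100% = Ran loaded with GDP instead of GTP; wells of about 40 µL received 100 nL stock; the first replicate is given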
T cruzi inh – blocks replication of Trypanosoma cruzi. T. cruzi beta-gal in NIH3T3, luminescence, 90 h. inhibition, % (concentration not given with the values). 1.4% of 300,000 active;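 active = mean inhibition across valid replicates above about 55%, limit read from the data; inconclusive = mean below that limit but half or more replicates reach it; inactive = mean below it, under half of replicates reach it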;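 also: signal also drops with host cell toxicity which is not excluded here; 0% = plate median of DMSO wells and 100% = zero luminescence signal; higher percent means less beta-gal luminescence so fewer parasites; stock transfer was 50 nL into about 50 µL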
* marks the source's active call; other numbers are inactive results; ? = inconclusive; nt = not tested or not shown.

SMILES | AF4-AF9 inh | Bfl-1 A1 inh | Vif A3G | Calb FLC | LANA-H2A inh | Beta apoptosis | RanGTP-Imp inh | T cruzi inh
Cc1cc(CNC(=O)C2CCC(=O)N(Cc3ccccc3F)C2)on1 (stereo not given) | -3.5 | 0.4 | -1% | -4 | 1.3 | 3 | 6.5 | -14
COc1ccc(S(=O)(=O)N2CCN(C(=O)C3CCC3)CC2)cc1 | ? | 0.1 | -7% | 2 | -1.6 | -3 | ? | -2
CCN(C(=O)COC(=O)CCCN1C(=O)c2cccc3cccc(c23)C1=O)C1CCS(=O)(=O)C1 (stereo not given) | -42 | 0.7 | -1% | 2 | 2.1 | -4 | 0.3 | 0
CC(C)Cn1cnc2sc3c(c2c1=N)CCCC3 | nt | 0.8 | 13% | 18 | -6.8 | -3 | 4.6 | -34
CCOc1ccccc1NC(=O)C1CCN(C(=O)NCc2ccccc2)CC1 | nt | -0.3 | -7% | ? | 1.9 | 0 | -0.4 | 5
COc1ccc(N2CCN(c3ncnc4c3[nH]c3ccccc34)CC2)cc1 | nt | -0.2 | 21% | -3 | 1.1 | 102* | 19* | 7
CCOC(=O)c1c(-c2ccccc2)oc2ccc(OC(C)C(=O)O)cc12 (stereo not given) | 2.3 | 0.0 | -10% | 2 | 3.0 | -3 | 2.2 | -4
CSCc1ccc(C(=O)Nc2cc(C)cc(C)c2)cc1 | nt | -1.3 | -6% | -17 | 0.0 | -4 | ? | 0
COc1ccccc1-c1cc(C(=O)NCCCn2ccnc2)no1 | nt | -0.2 | 1% | 4 | 3.4 | 2 | 4.0 | 0
COc1ccc(OC)c(C(=O)NC(CC(N)=O)c2ccc(N3CCN(c4ccccc4)CC3)c([N+](=O)[O-])c2)c1 (stereo not given) | 1.0 | -0.2 | nt | -10 | -1.2 | -19 | 0.4 | 1
O=C(c1cccc(S(=O)(=O)NCc2ccccc2)c1)N1CCN(c2cccc(C(F)(F)F)c2)CC1 | 19 | -0.5 | -11% | 10 | 3.6 | 7 | -0.6 | 45
C=CCOc1nc2c(c(=O)n(C)c(=O)n2C)n1Cc1c(Cl)cccc1Cl | nt | 0.1 | 24% | 5 | 2.2 | 23 | -0.4 | 25
O=C(NCCCCCCNC(=O)c1cncc(O)c1)c1cncc(O)c1 | 9.0 | 0.6 | nt | 1 | 1.6 | -1 | -2.6 | -14
C=CCn1c(C)cc(C(=O)CSc2nc(N)cc(N)n2)c1C | 3.5 | 1.0 | nt | 108* | 4.1 | 1 | -2.6 | -10
O=C(Nc1ccccc1)Nc1nc(-c2ccccc2)cs1 | 1.1 | -0.1 | 10% | -7 | -3.1 | 9 | 6.7 | 23
Cc1nn(CC(=O)NNC(=S)NCC2CCCO2)c(C)c1Br (stereo not given) | -3.9 | 0.7 | -8% | 0 | 2.0 | 2 | 1.5 | -10
COC(=O)c1ccc(CNC(=O)c2ccc3oc(C(C)C)nc3c2)cc1 | -0.3 | 1.2 | nt | -3 | -0.9 | 2 | 2.4 | 4
O=C(Cc1c(F)cccc1Cl)NC1=NCCS1 | -8.5 | 0.4 | -4% | 3 | 1.0 | 0 | 0.6 | -12
CCOc1cc(C(N)=O)cc(Br)c1OCC | 0.1 | 0.8 | 0% | 16 | -3.8 | -14 | -2.2 | -1
CN1CCOCCOCCN(C)C1=O | nt | -0.3 | 6% | -5 | 2.3 | 3 | -1.5 | -6
O=C(Cc1cccc(C(F)(F)F)c1)Nc1cccc(S(=O)(=O)N2CCCC2)c1 | -4.1 | 0.0 | nt | -8 | -3.1 | -8 | -2.4 | 5
Cc1ccc(C)c(-c2csc(-c3cccnc3)n2)c1 | -0.5 | 1.0 | nt | 41 | -0.6 | 0 | 5.4 | 47
CO/N=C(\Cn1ncc(N2CCCC2)c(Cl)c1=O)c1ccc(Cl)cc1 | nt | -0.1 | -1% | -4 | -2.3 | -1 | 0.8 | 9
O=C(Cn1c(=O)sc2ccccc21)Nc1ccccc1 | nt | 0.1 | 24% | -3 | 3.1 | 2 | 2.0 | -16
COc1cc(Cl)cc(/C=N/NC(N)=O)c1O | -0.9 | -0.7 | 10% | -2 | 4.5 | 0 | -6.8 | -6
CCCOc1ccc2ccccc2c1/C=N/n1c(C)nnc1-n1nc(C)cc1C | nt | 0.1 | -6% | -15 | 0.7 | -2 | -1.8 | 3
CCOC(=O)N/N=C/c1ccc(N2CCOCC2)s1 | nt | 0.2 | nt | -54 | 1.7 | -1 | -0.6 | 1
Cc1cccc(C)c1N(CC(=O)N1CCCC1)S(C)(=O)=O | 2.9 | 1.6 | -1% | -12 | 11 | 3 | -4.3 | -9
O=C(Nc1ccc(Oc2ccc(C(F)(F)F)cn2)c(Cl)c1)C1CC1 | 1.7 | 1.3 | -3% | 18 | 2.4 | nt | 0.7 | 2
O=C(NCCCn1ccnc1)c1cc(C(=O)C2CC2)c[nH]1 | nt | nt | 5% | -11 | -2.9 | -1 | 0.6 | -8
COCc1[nH]nc2c1C(c1ccc(OC)cc1)C(C#N)=C(N)O2 (stereo not given) | nt | 0.3 | 2% | 14 | 1.4 | -5 | 2.1 | 9
Cc1cc(C)cc(S(=O)(=O)c2cnc3ccccc3n2)c1 | 1.0 | 1.1 | 3% | -18 | 14* | -12 | -2.2 | -11
CCOc1ccc(S(=O)(=O)N(CC)CC(=O)NC2CC2)cc1 | -4.5 | 0.8 | nt | -2 | 3.9 | -9 | 4.3 | -10
C=CCn1c(SCc2nc(N)nc(N(C)C)n2)nnc1-c1cccnc1 | nt | 0.1 | 2% | 18 | -0.1 | -4 | ? | -12
O=C(NC(Cc1ccccc1)c1ccc2c(c1)OCCCO2)c1ccccc1F (stereo not given) | nt | -0.3 | -2% | 7 | -1.6 | 5 | ? | 15
Cc1ccc(NCCC(=O)c2ccc(Br)cc2)cc1 | nt | -0.4 | 5% | 6 | -3.5 | -6 | -0.2 | 27
CCn1cc(C(=O)NCCCOC(C)C)c(=O)c2cc(S(=O)(=O)N3CCOCC3)ccc21 | -1.1 | 1.0 | nt | -2 | 4.5 | -1 | 0.6 | 2
Nc1nc(N2CCCCC2)nc(N(c2ccccc2)c2ccccc2)n1 | 4.1 | 0.2 | -5% | 0 | 2.2 | -8 | -2.8 | 13
Cc1cc(=O)[nH]c(N2CCN(C(c3ccccc3)c3ccccc3)CC2)n1 | nt | 1.8 | 9% | 3 | -2.3 | -4 | 5.9 | 4
O=C(NCCc1ccc(F)cc1)c1ccc2nccnc2c1 | -1.6 | -0.6 | -8% | nt | 7.1 | 3 | nt | nt
CCOC(=O)N1CCC(N(CCN(C)C)C(=S)Nc2ccccc2OC)CC1 | -16 | -0.2 | 2% | 1 | -2.8 | -1 | -2.1 | 0
N=c1n(Cc2ccccc2)c2ccccc2n1CC(O)COc1ccc(Cl)cc1Cl (stereo not given) | 17 | nt | 5% | ? | nt | nt | nt | 19
O=C(Cn1c(=O)oc2ccc(Cl)cc21)NC1CCCCC1 | 0.1 | 1.0 | nt | 0 | -1.0 | nt | 2.7 | 0
COc1cccc(N(C(=O)c2cccs2)c2nc3ccccc3s2)c1 | nt | -0.4 | -2% | ? | -2.8 | 4 | -3.0 | 34
CSCC[C@H](NC(=O)[C@@H]1Cc2ccccc2CN1)C(=O)NC(C)c1ccccc1 (stereo not given in full) | 1.1 | 1.0 | nt | nt | -0.4 | -5 | 0.3 | 16

Given field by field: part of the list above.
> COc1ccc(N2CCN(c3ncnc4c3[nH]c3ccccc34)CC2)cc1
  AF4-AF9 inh: nt; Bfl-1 A1 inh: -0.2; Vif A3G: 21%; Calb FLC: -3; LANA-H2A inh: 1.1; Beta apoptosis: 102*; RanGTP-Imp inh: 19*; T cruzi inh: 7

> COCc1[nH]nc2c1C(c1ccc(OC)cc1)C(C#N)=C(N)O2 (stereo not given)
  AF4-AF9 inh: nt; Bfl-1 A1 inh: 0.3; Vif A3G: 2%; Calb FLC: 14; LANA-H2A inh: 1.4; Beta apoptosis: -5; RanGTP-Imp inh: 2.1; T cruzi inh: 9

> O=C(Cn1c(=O)sc2ccccc21)Nc1ccccc1
  AF4-AF9 inh: nt; Bfl-1 A1 inh: 0.1; Vif A3G: 24%; Calb FLC: -3; LANA-H2A inh: 3.1; Beta apoptosis: 2; RanGTP-Imp inh: 2.0; T cruzi inh: -16

The list goes on.
SMILES | AF4-AF9 inh | Bfl-1 A1 inh | Vif A3G | Calb FLC | LANA-H2A inh | Beta apoptosis | RanGTP-Imp inh | T cruzi inh
O=C(Nc1ccc(/C=C/c2nc3ccccc3o2)cc1)c1ccc(F)cc1 | nt | 0.4 | 4% | -2 | 2.9 | 24 | 1.0 | 10
O=C(NNC(=S)Nc1ccccc1)c1ccco1 | nt | -0.1 | ? | -18 | 0.0 | 1 | 4.6 | 8
CCCCn1c(N)c(N(CC(C)C)C(=O)c2cccc(S(=O)(=O)N3CCN(C(C)=O)CC3)c2)c(=O)[nH]c1=O | -16 | 0.7 | -9% | 7 | -3.0 | nt | 6.2 | -10
CC(C)[C@H](NC(N)=O)C(=O)NCCc1ccc(Cl)cc1 | -1.5 | 0.1 | ? | 0 | 4.0 | -8 | -2.0 | -8
CCCCN1C(=O)C2NN=C(C(=O)OCC)C2C1=O (stereo not given) | nt | -0.2 | 31% | -12 | 0.0 | -3 | -0.7 | -13
CSc1ccccc1NC(=O)c1cnc2n(c1=O)CCS2 | 0.1 | 1.7 | -1% | 1 | -3.2 | -2 | 4.3 | -12
Cc1csc(NC(=O)c2cc(-c3ccccc3)nc3ccccc23)n1 | nt | 0.0 | 23% | 42 | 2.6 | 8 | 4.3 | 19
COc1ccc(-c2cnc(SCC(=O)Nc3nc(C(C)(C)C)cs3)n2Cc2ccco2)cc1 | nt | 0.2 | 11% | ? | 6.2 | 9 | 5.6 | 49
O=C(CSc1nnc(-c2ccco2)o1)NC1CC2CCC1C2 (stereo not given) | nt | 0.2 | 4% | -10 | -6.3 | -9 | -0.3 | -6
C#CCOCCOCCOCCNc1nc(N2CCN(C(=O)[C@H](CCC(=O)O)n3cc(C(N)CC(C)C)nn3)CC2)nc(N2CCN(C(=O)[C@H](CCC(=O)O)n3cc(C(N)[C@H](C)CC)nn3)CC2)n1 (stereo not given in full) | nt | -2.2 | 3% | -6 | 5.6 | 2 | 2.1 | -4
O=C(COC(=O)c1c(Cl)ccc(Cl)c1Cl)NCC1CCCO1 (stereo not given) | -2.2 | 0.9 | nt | nt | 1.6 | -4 | nt | nt
COc1ccc(OC)c2[nH]c(=O)c(CCNC(=O)C(=O)c3c(C)[nH]c4ccccc34)cc12 | -0.6 | -0.5 | 2% | -6 | -0.8 | -1 | 3.1 | 3
Cc1ccccc1OCC(=O)N/N=C1\SCC(=O)N1Cc1ccccc1 | nt | 0.9 | 0% | 15 | 4.8 | -7 | 4.3 | -5
COc1ccccc1CNC(=O)C(=O)Nc1nccs1 | 0.4 | 0.4 | 1% | -13 | 1.9 | -8 | 0.5 | 7
O=C(Nc1ccc2c(c1)OCCO2)C1CCC1 | nt | 0.5 | >100µM* | 0 | -0.8 | -5 | -8.4 | -11
